Screening data: PubChem BioAssay, National Center for Advancing Translational Sciences (NCATS)
Rango complex inh: inhibitors of Rango-importin beta complex formation; Rango CFP/YFP FRET sensor + importin beta, 45 min; Potency, µM (top dose mostly 92.2 µM), for inactives: at the top dose inhibition of complex formation; actives 0.031% (n = 340,000); AID 540263; active = rising FRET ratio curve, often small or poorly fitted; inconclusive = mostly compound fluorescence or quenching in the first reads; inactive = flat curves in all reads;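 note: potency is the fitted concentration of half-maximal effect; 0% = DMSO wells and 100% = buffer wells lacking importin beta; nearly all actives have a fitted effect of over 15% in size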
Target sequence (Q14974 whole entry, looked up): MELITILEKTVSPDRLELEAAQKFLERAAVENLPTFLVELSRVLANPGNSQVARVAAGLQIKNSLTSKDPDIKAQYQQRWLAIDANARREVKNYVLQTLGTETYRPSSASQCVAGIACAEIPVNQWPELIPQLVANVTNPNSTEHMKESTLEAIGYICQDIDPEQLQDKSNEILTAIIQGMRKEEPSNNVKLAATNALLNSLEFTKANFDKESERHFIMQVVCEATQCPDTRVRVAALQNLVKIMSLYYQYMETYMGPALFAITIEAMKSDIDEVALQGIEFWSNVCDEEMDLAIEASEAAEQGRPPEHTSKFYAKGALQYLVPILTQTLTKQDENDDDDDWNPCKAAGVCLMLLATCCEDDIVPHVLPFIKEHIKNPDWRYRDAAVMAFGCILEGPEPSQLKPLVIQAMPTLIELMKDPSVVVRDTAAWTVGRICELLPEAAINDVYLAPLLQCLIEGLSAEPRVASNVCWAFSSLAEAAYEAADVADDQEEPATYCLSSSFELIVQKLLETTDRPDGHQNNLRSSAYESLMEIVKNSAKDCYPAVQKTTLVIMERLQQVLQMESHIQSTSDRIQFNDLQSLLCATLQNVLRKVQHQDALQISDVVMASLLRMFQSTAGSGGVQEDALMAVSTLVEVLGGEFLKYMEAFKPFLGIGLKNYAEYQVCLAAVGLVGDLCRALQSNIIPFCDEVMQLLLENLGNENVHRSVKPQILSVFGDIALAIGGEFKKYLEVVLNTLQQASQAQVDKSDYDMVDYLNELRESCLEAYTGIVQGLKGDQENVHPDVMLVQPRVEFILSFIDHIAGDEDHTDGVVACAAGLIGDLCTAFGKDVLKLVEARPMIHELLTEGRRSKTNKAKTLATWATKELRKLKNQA
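FRET biosensor (snurportin 1 IBB flanked by EYFP and cerulean), 50 nM, with compound 5 min, then 0.125 microM importin beta in PBS, 1 mM DTT, 0.02% Tween-20, 0.1% BSA. CFP/YFP ratio read after 45 min at room temperature; pre-read flags interference.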
miR-21 reporter: miR-21 reporter, rising signal. AID 2288. 340,000 tested, under 10 active. Potency, µM (top dose mostly 38.3 µM), without a hit: at the top dose reporter change, positive = more light. HeLa miR-21 FLuc reporter, luciferase, 48 h; active = well fitted rising curve with a large enough effect; inconclusive = small, poorly fitted or top-dose-only effect; inactive = no such curve, though single readings can be large or run the other way;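 note: % of control where 0% means no effect; miR-21 action dims this reporter so a rising signal means less miR-21 action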
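Using DMEM plus 10% FBS, HeLa miR-21-FLuc cells are incubated with test compounds (final up to about 40uM) for 48 hours; firefly luciferase signal is then imaged following reagent-mediated lysis.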
Rango dissoc inh: inhibitors of RanGTP-induced Rango-importin beta complex dissociation. Biochemical FRET Rango-importin beta, RanGTP-induced dissociation. Potency, µM (top dose mostly 46.1 µM), for the others: top-dose activity change, negative = inhibition. actives 0.071% (n = 340,000). AID 540253; active means falling FRET ratio curve, often poorly fitted, with flat reads before Ran was added; inconclusive means other falling curves, or compound fluorescence or quenching; inactive means flat or rising ratio curve;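 note: potency is the fitted concentration of half-maximal effect; % of control where 0% means no effect; nearly all actives have a fitted effect of over 45% in size; -100% = wells without RanGTP and RCC1; the record marks most hits as doubtful in a second field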
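FRET read at 45 min, room temperature: inhibitors block the CFP/YFP signal rise when RanGTP (0.6 uM Ran, 2 mM GTP, 0.2 uM RCC1) frees Rango (0.1 uM) from importin beta (0.25 uM). Pre-read after 5 min compound exposure flags interference.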
GLA inh pH 4.5: alpha-galactosidase A (human) inhibition, pH 4.5. P06280. purified enzyme, 4-MU-alpha-Gal fluorescence, pH 4.5. activity change, negative = inhibition, % at 105 µM. 230,000 tested, under 10 active; inconclusive = small, poorly fitted or top-dose-only inhibition, or a rising curve; inactive = flat fitted curve, though single readings scatter; no compound was filed as active;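 note: 0% = full activity with enzyme and -100% = basal without enzyme; dose as in the result columns while the protocol names 77 µM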
* hit, by the source's call; ? = inconclusive; nt = not tested or not shown. A portion of the library; the hit share may differ from the screen's.

Rango complex inh | GLA inh pH 4.5 | miR-21 reporter | Compound | Rango dissoc inh
3.5% | -19 | 17% | CC(C)C[C@H](NC(=O)c1[nH]cnc1C(=O)N[C@@H](C)C(=O)OC(C)(C)C)C(=O)OCc1ccccc1 | 31%
0.0% | nt | 14% | COc1ccc(N2CCN(C(=O)c3cc(-c4ccc(F)cc4)[nH]c3C)CC2)cc1 | -2%
2.3% | 24 | -9% | Nc1ccccc1-c1nc2ccccc2[nH]1 | 8%
2.5% | nt | -29% | O=C(NC(=S)Nc1ccccc1Br)c1ccc2c(c1)OCO2 | -16%
0.7% | -16 | -1% | O=C(NCc1ccccc1)C(c1ccc(O)cc1)N(C(=O)Cn1nnc(-c2cccs2)n1)c1ccc2c(c1)OCCO2 (stereo not drawn) | -8%
0.9% | nt | nt | O=C(COc1ccccc1)NCC(c1ccco1)N1CCN(c2ccccc2)CC1 (stereo not drawn) | 8%
0.6% | -3 | -4% | O=C(COC(=O)C1CCN(S(=O)(=O)c2ccccc2C(F)(F)F)CC1)NCc1ccc(F)cc1 | -8%
5.2% | 6 | ? | CCOC(=O)/C=C(\C)Sc1cc(=O)oc2ccccc12 | 5%
-4.2% | 9 | -11% | O=C(O)C1C2C=CC(C2)C1C(=O)Nc1cccc(F)c1 (stereo not drawn) | 12%
4.4% | -6 | -2% | COc1ccc(C(=O)Cn2c(Br)nc3c2c(=O)n(C)c(=O)n3C)cc1OC | 34%
-2.0% | nt | -2% | COc1ccc(/C=C2/SC(=S)N(NS(=O)(=O)c3ccc(C)cc3)C2=O)cc1 | 22%
-4.0% | -8 | 1% | Nc1nsnc1C(=O)NCCO | 2%
0.3% | 6 | -1% | Cc1cc(C)nc(SCCC(=O)N(C)C)n1 | 9%
8.8% | nt | 9% | Cc1n[nH]c(C)c1CCCCOc1ccccc1[N+](=O)[O-] | -11%
2.5% | -3 | -4% | O=C(CNC(=O)c1ccco1)NCC(=O)OC(C(=O)c1ccccc1)c1ccc(Cl)cc1 (stereo not drawn) | 2%
-1.3% | nt | -1% | Cc1cccc(NC(=O)CCNC(=O)c2ccc(Br)cc2)c1C | 2%
-1.1% | 5 | 4% | CNC(=O)NC(=S)NC(=O)c1cccc(Cl)c1 | 16%
-0.6% | 2 | -3% | COc1cc2c(C(=O)N3CCN(C4CCCCC4)CC3)cn(CC(C)C)c(=O)c2cc1OC | -3%
2.5% | 7 | 2% | CCCN1C(=S)SC(C)(C)C1/[N+]([O-])=C/c1cccnc1 (stereo not drawn) | 5%
? | nt | -51% | CCOc1ccc(C2C(C(=O)c3ccc(C)o3)=C(O)C(=O)N2c2nc(C)c(C(=O)OC)s2)cc1 (stereo not drawn) | ?
-1.4% | -6 | 0% | Cc1ccc(CN2CCCC(CO)(Cc3ccccc3C)C2)s1 (stereo not drawn) | -8%
0.2% | 8 | 5% | CCn1c(CNC(=O)c2ccco2)nnc1SCC(=O)Nc1cc(C)c(C)cc1Br | -10%
0.8% | nt | nt | CN(CC(=O)Nc1cccc(F)c1)C(=O)c1cc(=O)[nH]c2ccccc12 | 1%
2.2% | -7 | -6% | COc1ccc(OC)c(NC(=O)CSc2nnc(CCCO)n2-c2ccccc2)c1 | 0%
0.3% | -5 | -14% | CCOC(=O)/C(=C\c1ccccc1)NC(=O)c1ccccc1 | 3%
-0.1% | 7 | 0% | Nn1cnc2c([nH]c3ccccc32)c1=O | -1%
? | nt | nt | O=[N+]([O-])c1ccc(Nc2nccc(Cl)n2)cc1 | 5%
2.9% | 7 | -3% | CCOc1ccc(OC(=O)NC(c2ccccc2)C(Cl)(Cl)Cl)cc1 (stereo not drawn) | 2%
-0.3% | nt | -51% | O=C(Nc1cccc2cccnc12)c1ccc(Cl)cc1 | -12%
2.1% | nt | nt | C/C(=N\OC(=O)Nc1ccccc1)c1ccc(C)cc1 | 22%
-3.0% | -4 | -2% | Cc1cc(Br)c(OCc2ccc(C(=O)N/N=C3\CC4CC=CC34)cc2)c(Br)c1 (stereo not drawn) | 36%
-0.4% | -1 | -2% | CC(OC(=O)c1ccccc1N1C(=O)C2C3CCC(C3)C2C1=O)C(=O)c1ccccc1 (stereo not drawn) | 1%
3.3% | 3 | -3% | COc1ccccc1CNC(=O)C1CCN(S(=O)(=O)c2c(C)noc2C)CC1 | 1%
3.6% | nt | -1% | CCn1c(CN2CCN(c3ccc(OC)cc3)CC2)nc2cc(S(=O)(=O)N(C)C)ccc21 | 0%
-2.1% | 6 | -9% | COc1cc(C2CC(C(F)(F)F)n3ncc(C(=O)O)c3N2)cc(OC)c1OC (stereo not drawn) | 1%
5.0% | nt | 7% | NS(=O)(=O)c1ccc(NC(=O)CSc2nnc(-c3ccc(O)cc3)o2)cc1 | -3%
-3.2% | nt | nt | CCCc1cc(CN2CCOCC2)c(O)c(CN2CCOCC2)c1O | -8%
? | 1 | -6% | Cc1c(C(=O)N2CCCCC2)sc(NC(=O)c2ccco2)c1C#N | ?
0.9% | nt | 3% | COc1ccccc1CNC(=O)N1CCN(S(=O)(=O)c2ccc(C)cc2)CC1 | 44%
-0.1% | nt | nt | COc1ccc([C@H]2CC(=O)C=C(c3cccc4c3Oc3ccccc3S4)C2)cc1OC | -7%
1.0% | 0 | -3% | CCOCCCNC(=O)C(c1ccc(Cl)cc1)N(Cc1ccc2c(c1)OCO2)C(=O)CNC(C)=O (stereo not drawn) | 12%
-1.8% | nt | -9% | CCOC(=O)c1cc(C)sc1NC(=O)CSc1nccn1C | -6%
0.0% | nt | 0% | COc1cc2c(cc1OC)C(c1ccccc1C)CC(=O)N2 (stereo not drawn) | -6%
-0.4% | nt | nt | Cc1ccc(NC(=O)CSc2ncccn2)cc1S(=O)(=O)N1CCCCC1 | 1%
-3.4% | -7 | -3% | CCC(=O)N1CCc2cc(S(=O)(=O)N3CCc4ccccc43)ccc21 | 8%
4.2% | nt | -56% | O=C(Nc1cccnc1Cl)c1ccc(Cl)cc1 | 32%
0.9% | nt | nt | O=C(COC(=O)c1ccccc1SCC(=O)N1CCCC1)Nc1ccccc1OC(F)F | -7%
-2.7% | 4 | -3% | COc1cc(/C=C/C(=O)NNc2c(F)c(F)cc(F)c2F)ccc1OC(F)F | -4%
-5.0% | nt | nt | O=c1c2c(O)cc(O)cc2oc2c(O)ccc(O[C@H]3O[C@@H](CO)[C@H](O)[C@@H](O)[C@@H]3O)c12 | 21%
-2.0% | nt | nt | CCCCn1c(N)c(N(CCC(C)C)C(=O)c2cc(S(=O)(=O)N3CCOCC3)ccc2F)c(=O)[nH]c1=O | -8%

Continued:
Rango complex inh | GLA inh pH 4.5 | miR-21 reporter | Compound | Rango dissoc inh
0.2% | -6 | 0% | CC(=O)N1CCN(c2ccc(S(=O)(=O)N3CCCCC3)cn2)CC1 | -2%
-0.6% | 3 | 0% | O=C(NNS(=O)(=O)c1ccc(C(F)(F)F)cc1)c1cnn(-c2ccccc2)c1C(F)(F)F | ?
4.5% | nt | nt | Cc1ccc(C)c(S(=O)(=O)Nc2ccc(C(=O)N3CCC3)cc2)c1 | 13%
2.3% | -6 | -7% | Cc1nn(C)c(C)c1NC(=O)CSc1nc(-c2ccccc2Cl)nc2c1cnn2-c1ccccc1 | 2%
? | nt | -5% | O=C1[C@@H]2Cc3c([nH]c4ccccc34)CN2C(=O)CN1CCCCCO | -15%
-0.5% | -14 | -4% | Cn1nnnc1NCc1ccc(Cl)c(Cl)c1 | 27%
-3.8% | 13 | -8% | Cn1c(SCC(=O)c2ccc3c(c2)Cc2ccccc2-3)nnc1-c1ccccc1 | ?
0.0% | nt | -1% | CCOc1ccc(N=Cc2ccc3ccccc3c2)cc1 | 2%
-0.6% | -1 | -1% | COc1ccc(C(=O)n2nnc3ccccc32)cc1OC | -1%
2.0% | nt | -10% | CC(=O)Nc1ccc(S(=O)(=O)NCCN2CCNC2=O)cc1Cl | -7%
-2.7% | nt | nt | O=C(NC(=S)Nc1ccccc1CO)C1CCCCC1 | -20%
0.1% | 0 | -17% | CCOc1cc(CNCCN2CCOCC2)ccc1OCc1ccccc1Cl | -1%
? | nt | -1% | Cc1ccc(S(=O)(=O)N2CCC(C(=O)NC3CC3)CC2)cc1 | ?
-1.0% | -20 | 3% | COC(=O)c1c(-c2cc(C)ccc2C)csc1NC(=O)C1CC=CCC1C(=O)O (stereo not drawn) | -1%
-0.3% | -10 | -3% | COc1ccccc1OC(C)C(=O)O (stereo not drawn) | 1%
-4.8% | nt | 0% | O=S(=O)(/C=C/c1ccccc1)N1CCNCC1 | 10%
0.2% | 1 | 0% | O=C(CCC1COc2ccccc2O1)NCc1ccccc1 (stereo not drawn) | -2%
-0.9% | nt | -21% | CN(C)CCN(C(=O)c1ccc2ccccc2c1)c1nc2ccc(Br)cc2s1 | -5%
0.0% | 4 | 1% | CCOCCn1c(=NC(=O)/C=C/c2ccccc2Cl)sc2cc(NC(C)=O)ccc21 | 1%
-3.0% | ? | -4% | CC1=CN2C(=NC(=O)CC2(C)C(=O)N(CC(=O)NC2CCCC2)c2ccccc2C)C=C1 (stereo not drawn) | 0%

Rewritten as tab-separated lines: three of the compounds above.
molecule	Rango complex inh	GLA inh pH 4.5	miR-21 reporter	Rango dissoc inh
COC(=O)c1c(-c2cc(C)ccc2C)csc1NC(=O)C1CC=CCC1C(=O)O (stereo not drawn)	-1.0%	-20	3%	-1%
COc1ccccc1OC(C)C(=O)O (stereo not drawn)	-0.3%	-10	-3%	1%
O=S(=O)(/C=C/c1ccccc1)N1CCNCC1	-4.8%	nt	0%	10%

Remaining list, next part.
Rango complex inh | GLA inh pH 4.5 | miR-21 reporter | Compound | Rango dissoc inh
-7.3% | nt | nt | O=C(Cc1ccccc1)N[C@@H]1c2ccccc2CC[C@@H]1OCc1ccccc1 | -3%
-1.3% | -24 | ? | COc1ccc(CC(=O)Nc2cccc(-c3nnc(-c4cccc(C)c4)o3)c2)cc1OC | -9%
4.4% | -1 | 0% | O=C(O)C1CCN(C(=O)Cc2ccccc2)CC1 | 16%
7.3% | 2 | 3% | CN(C)S(=O)(=O)c1ccc(C(=O)N2CCC(c3nc4ccccc4o3)CC2)cc1 | 11%
-1.1% | 5 | -7% | C/C(=N\NC(=O)CCC(=O)Nc1ccccc1)c1cccs1 | 6%
? | -4 | -4% | O=c1cc2c(nn1Cc1ccc(F)cc1)-c1ccccc1CC2 | -4%
0.0% | nt | -4% | CCCCOc1ccc(N2CC(C(=O)NCc3ccco3)CC2=O)cc1 (stereo not drawn) | 3%
-1.0% | nt | -3% | Cc1ccc(CN2CCNC(=O)C2CC(=O)N(C)C2CCOCC2)cc1 (stereo not drawn) | -18%
-1.9% | 5 | 3% | CC(NC(=O)c1ccccc1Br)c1ccc2c(c1)CCCC2 (stereo not drawn) | 11%
-4.7% | nt | 2% | CCOC(=O)C1CCN(S(=O)(=O)c2cn(C)c(C)n2)CC1 | 0%
-2.2% | -16 | 2% | Cn1c(=O)c2c(nc(SCC(=O)N3c4ccccc4CCc4ccccc43)n2C)n(C)c1=O | 8%
0.0% | nt | nt | COc1ccc(Nc2c[nH]c(=O)[nH]c2=O)cc1 | -7%
-2.5% | nt | nt | O=C(c1ccc(N2CCCC2)c([N+](=O)[O-])c1)N1CCc2ccccc2C1 | 0%
? | nt | nt | Cc1ccc(F)cc1NC(=O)CSCc1nc2sc(C)c(C)c2c(=O)[nH]1 | -10%
? | -1 | -1% | CC(C)C(NC(=O)c1cccc(S(=O)(=O)N2CCOCC2)c1)C(=O)NCCc1ccccn1 (stereo not drawn) | 10%
0.1% | 4 | -6% | CCn1nc(C(=O)OCC(=O)N2CCc3ccccc32)c2ccccc2c1=O | 7%
-1.8% | -3 | 0% | Cc1cc(Cl)ccc1OCC(=O)Nn1c(C)ccc1C | -2%
5.0% | 2 | -4% | Cc1cccc(-n2c(C)cc(/C=N/n3cnnc3)c2C)c1 | 4%
-0.1% | -20 | -1% | O=C(Nc1ccccc1)N1CCN(C2c3ccccc3-c3ccccc32)CC1 | 0%
5.2% | nt | 3% | COc1ccc(NS(=O)(=O)c2cccc(C(=O)NC3CCC(O)CC3)c2)cc1 (stereo not drawn) | 24%
4.8% | 8 | -10% | O=C(CSc1ncccc1-c1nc2ccccc2[nH]1)N1CCN(c2ccccc2F)CC1 | 5%
-2.9% | 3 | 10% | Cc1[nH]n(-c2ccccc2)c(=O)c1/C=N/Nc1nncc(-c2ccccc2)n1 | 4%
